High-throughput results as filed in PubChem BioAssay.
ALR H2O2 inh = human ALR oxidase inhibition via reduced H2O2 | P55789 | purified ALR, DTT oxidation, H2O2 HRP-luminol luminescence | inhibition, % (test concentration not listed) | 3.8% of 290,000 active | AID 485317;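 active = mean and each replicate at 75% or more; inconclusive = only one of the two met; inactive = neither met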;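 note: stock transfer was 7.5 nL into about 7.5 µL; 0% = neutral wells and 100% = wells with inactivated enzyme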
Target sequence (P55789 whole entry, looked up): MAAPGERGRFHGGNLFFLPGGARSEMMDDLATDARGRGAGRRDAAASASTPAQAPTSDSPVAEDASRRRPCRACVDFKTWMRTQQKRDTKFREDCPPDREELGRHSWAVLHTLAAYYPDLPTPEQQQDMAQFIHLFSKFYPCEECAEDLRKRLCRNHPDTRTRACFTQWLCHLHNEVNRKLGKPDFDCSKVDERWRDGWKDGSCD
T cruzi repl = blocks replication of Trypanosoma cruzi | 1.4% of 300,000 active | T. cruzi beta-gal in NIH3T3, luminescence, 90 h | AID 1885 | inhibition, % (test concentration not listed);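 active = mean inhibition across valid replicates above about 55%, limit read from the data; inconclusive = mean below that limit but half or more replicates reach it; inactive = mean below it, under half of replicates reach it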;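 note: signal also drops with host cell toxicity which is not excluded here; 0% = plate median of DMSO wells and 100% = zero luminescence signal; higher percent means less beta-gal luminescence so fewer parasites; stock transfer was 50 nL into about 50 µL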
FGF22 binding = shifts melting point of recombinant human FGF22; calls only at 9.99 µM; Q9HCT0; 1.5% of 340,000 active; AID 651658; recombinant FGF22 thermal shift, SYPRO orange fluorescence; percent of sucrose octasulfate shift, DMSO zero;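 active = melting point raised past a set limit in the mean and every replicate; inconclusive = no clear call; three in four hits are not shown here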
Target sequence (Q9HCT0 whole entry, looked up): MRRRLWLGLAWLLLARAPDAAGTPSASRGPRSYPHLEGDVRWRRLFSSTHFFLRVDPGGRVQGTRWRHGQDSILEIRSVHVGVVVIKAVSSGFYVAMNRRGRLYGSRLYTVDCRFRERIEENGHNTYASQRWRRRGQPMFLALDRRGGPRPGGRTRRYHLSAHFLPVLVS
Calb FLC = C. albicans growth modulation with fluconazole. C. albicans CaCi-2 (fluconazole-resistant clinical isolate) + fluconazole, Alamar Blue growth, 48 h. growth inhibition, % (test concentration not listed). 0.57% of 300,000 active. AID 1979;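 active = most replicates above 75%; inconclusive = exactly half above 75%; inactive = most below 75%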;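 note: all wells also contain fluconazole at 8 µg/ml as a sub-toxic cotreatment; 0% = median of DMSO wells and 100% = median of geldanamycin control wells; wells of about 8 µL received 7.5 nL stock; the first replicate is given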
RanGTP-Imp inh = inhibitors of RanGTP-importin-beta interaction, primary screen, biochemical, FRET, CFP-Ran, YFP-importin-beta, homogeneous; cell-free CFP-Ran/YFP-importin-beta FRET ratio; inhibition, % (no concentration beside the values); 1.1% of 300,000 active; AID 2216;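 active = most replicates above 15%; inconclusive = exactly half above 15%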;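 note: 0% = DMSO wells and 100% = Ran loaded with GDP instead of GTP; wells of about 40 µL received 100 nL stock; the first replicate is given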
Ecoli rRNA inh = selective bacterial rRNA inhibition in E. coli; E. coli WT GFP vs humanized-ribosome RFP mutants, fluorescence, 24 h; hits give low values; DMSO median 0, no signal -100; GFP signal change (wild-type ribosome), % (no concentration beside the values); 1.6% of 350,000 active;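 active = significant combined selectivity score with lowered wild-type GFP, culture density cut under 30%, mutant RFP and density less affected; inactive = any of these conditions unmet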; note: one replicate is shown; some compounds called inactive have numbers as strong as hits
Beta cell apopt = blocks beta cell apoptosis. INS-1E cytokine-induced death, ATP luminescence, 48 h; percent of positive-control rescue, neutral wells zero. protection from apoptosis, % (test concentration not listed). 0.8% of 300,000 active;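 active = all replicates at 75% or more, or half of them and the mean; inconclusive = half reach 75% but not the mean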;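 note: 0% = cytokine-treated negative control wells and 100% = positive control rescue; higher means more ATP so stronger rescue from cytokine killing; wells of about 40 µL received 100 nL stock; the first replicate is given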
MLL AF4-AF9 inh = blocks AF4 peptide binding to human AF9 | inhibition, % at 10 µM | 0.47% of 350,000 active | AlphaScreen, biotin-AF4 peptide binding to FLAG-AF9 | P42568;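 active = every replicate reaching a set inhibition limit, whatever the replicate mean, cut at about 25% in these data; inconclusive = mean inhibition reaches that limit but some replicates miss it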;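 note: 0% = plate neutral control median and 100% = total signal loss; the record names both 10 and 1 µM as test concentration; the first replicate is given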
Target sequence (P42568 whole entry, looked up): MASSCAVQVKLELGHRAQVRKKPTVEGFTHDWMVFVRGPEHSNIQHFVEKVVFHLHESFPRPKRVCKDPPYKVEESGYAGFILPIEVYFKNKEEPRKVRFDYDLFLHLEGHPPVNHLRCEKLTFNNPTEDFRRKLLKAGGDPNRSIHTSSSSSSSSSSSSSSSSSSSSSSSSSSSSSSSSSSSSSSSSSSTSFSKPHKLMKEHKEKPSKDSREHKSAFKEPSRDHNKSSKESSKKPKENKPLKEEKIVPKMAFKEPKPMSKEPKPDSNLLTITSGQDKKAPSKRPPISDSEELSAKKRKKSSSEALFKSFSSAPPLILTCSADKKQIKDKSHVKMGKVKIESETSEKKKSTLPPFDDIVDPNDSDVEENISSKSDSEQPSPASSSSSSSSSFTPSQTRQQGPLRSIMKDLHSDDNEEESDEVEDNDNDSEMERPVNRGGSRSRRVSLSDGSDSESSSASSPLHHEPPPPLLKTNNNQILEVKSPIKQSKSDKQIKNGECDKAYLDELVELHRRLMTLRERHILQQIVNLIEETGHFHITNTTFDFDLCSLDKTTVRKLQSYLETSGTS
Ecoli rRNA inh OD600 = also measured in Ecoli rRNA inh; calls as there; OD600 change, %; measured here: OD600 growth;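 optical density of the mix in the first replicate; 0 = DMSO median and -100 = no signal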
Ecoli rRNA inh RFP = also measured in Ecoli rRNA inh; calls as there; RFP signal change, %; measured here: RFP humanized mutant strains;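 first replicate; 0 = DMSO median and -100 = no signal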
Numbers without * were called inactive; i = inactive; ? = inconclusive; . = no result given. Some of the compounds tested; count on the stated rates, not on these rows.

smiles	ALR H2O2 inh	T cruzi repl	FGF22 binding	Calb FLC	RanGTP-Imp inh	Ecoli rRNA inh	Ecoli rRNA inh OD600	Ecoli rRNA inh RFP	Beta cell apopt	MLL AF4-AF9 inh
O=C1CCCCc2sc(Br)c([N+](=O)[O-])c2N1	36	-3	i	-17	5.0	9	4	2.0	-8	-1.6
CSc1nsc(SCc2ccc(F)cc2)n1	-8	-5	.	4	3.1	.	.	.	-8	.
CCCCOc1cccc(C(=O)NC(=S)Nc2cccc(NC(=O)c3ccccc3Cl)c2)c1	.	34	.	-6	0.5	.	.	.	-3	.
O=C(N/N=C/C=C/c1ccccc1)C1CC1c1ccccc1 (stereo not drawn)	3	14	.	-6	5.3	.	.	.	-8	.
C=CCNC(=O)c1onc(CSc2ccc(C(C)C)cc2)c1C(=O)O	97*	-10	.	32	4.8	-4	-9	15	-1	0.2
COc1cc(OC)c(C2=NOC(C(=O)NCc3cccnc3)C2)cc1Cl (stereo not drawn)	2	-4	i	-2	-1.2	-5	-7	-1.7	.	-3.4
CCCCc1noc(-c2c(-c3ccccc3Cl)noc2C)n1	-4	10	i	13	0.4	1	-4	-1.1	-4	-0.4
Cc1cccc(OCC(=O)N(Cc2ccc(F)cc2)C2CCS(=O)(=O)C2)c1C (stereo not drawn)	-13	-10	i	24	?	-8	-8	5.8	2	2.5
O=C1NC(c2ccc(Cl)cc2)Oc2ccccc21 (stereo not drawn)	-26	-5	i	-12	6.3	18	10	3.8	-4	0.1
Cn1cc(/C=N/NC(=O)c2ccccc2O)c2ccccc21	71	-15	i	-5	-2.1	-13	-4	-3.5	2	8.5
CC(=O)Nc1ccc(S(=O)(=O)NC2=C(N3CCN(C)CC3)C(=O)c3ccccc3C2=O)cc1	-8	14	i	.	2.4	-1	5	5.9	99*	2.1
Cc1nc2ccccc2c2nc(NC(=O)C(F)(F)F)nn12	-11	-24	i	-16	-0.4	2	8	0.7	-4	-2.8
C=C(C)CSc1nc2sc3c(c2c(=O)n1-c1ccc(C)cc1)CCN(C)C3	.	34	i	-5	-6.0	-7	-8	6.2	.	10
COc1ccc(N/N=C(/C)c2cnnc(-c3ccccc3)n2)cc1	-29	19	.	-7	-3.5	.	.	.	8	.
Cc1cccc(N(C(=O)Cn2nnc(-c3ccc(C)o3)n2)C(C(=O)NC2CCCC2)c2ccncc2)c1 (stereo not drawn)	-3	-28	i	9	-2.5	5	14	1.0	-2	0.3
N#CC1=C(N)Oc2cc(N)ccc2C1C1CC=CCC1 (stereo not drawn)	93*	?	.	-14	141*	.	.	.	6	.
COc1cc(/C=N/NC(=O)COc2c(C)cc([N+](=O)[O-])cc2C)ccc1OC(=O)c1ccccc1Br	0	7	.	-11	3.5	.	.	.	4	.
CC(C)C(=O)N1CCN(c2ccccc2NC(=O)c2cc([N+](=O)[O-])ccc2N2CCOCC2)CC1	-4	7	i	-14	0.8	-2	-4	-5.7	14	4.8
O=C1C2CCCCN2C(=O)N1CCN1CCN(c2ccc([N+](=O)[O-])cc2)CC1 (stereo not drawn)	-3	6	.	-10	-2.9	.	.	.	-1	.
Cc1ccc(N(CC(=O)Nc2ccc(Br)c(C)c2)S(=O)(=O)c2c(C)[nH]c(=O)[nH]c2=O)cc1	-4	-5	i	1	3.3	-8	-11	1.0	-7	-3.4
O=C(CN1CCc2ccccc2C1)c1cccs1	-4	-3	.	-4	25*	.	.	.	1	.
COc1ccc(C2C3=C(Nc4ncnn42)c2ccccc2CC3)cc1OC (stereo not drawn)	-24	-10	.	-1	-0.9	.	.	.	0	.
COc1cccc(NC(=O)CCNC(=O)Cn2ccc3ccccc3c2=O)c1	-4	-1	.	4	-0.4	.	.	.	-5	.
CCCc1ccc2oc(C(=O)NCCN3CCCC(C(N)=O)C3)c(C)c2c1 (stereo not drawn)	-1	-4	i	3	-2.0	-10	-4	2.5	-6	4.0
CC(=O)Nc1ccc2nc(-c3ccccn3)[nH]c2c1	-4	-1	.	-1	?	.	.	.	3	.
N#Cc1cc2c(nc1SCc1nc3ccccc3[nH]1)CCC2	12	-13	.	32	1.9	.	.	.	24	.
CCNc1nc(OC)nc(N2CCC(Cc3ccccc3)CC2)n1	-3	10	i	2	-0.8	5	4	-0.2	14	-3.6
O=c1cc(CN2CCC3(CC2)OCCO3)c2c(ccc3ccccc32)o1	-19	3	.	-3	1.4	.	.	.	4	.
COc1ccc(N2CCN(C(=O)CN3c4cccc5cccc(c45)S3(=O)=O)CC2)cc1	.	.	i	.	.	-7	-10	11	-2	5.3
CSc1ccccc1C(=O)Nc1cc(C)ccc1C	2	4	i	-21	4.4	11	6	-1.1	-15	-2.7
CN1CCc2c(sc3c2C(=O)NC(/C=C\c2ccccc2)N3)C1 (stereo not drawn)	8	-11	i	-1	121*	.	.	.	-3	8.4
O=C(O)CNC1=NCCCCC1	-5	-27	i	40	7.0	6	2	-3.0	-1	-1.0
C/C(=N\NC(=O)CSc1ncccn1)c1ccc2c(c1)OCCO2	3	0	.	29	2.8	.	.	.	-3	.
Cc1nn(C)cc1NC(=O)CC12CC3CC(CC(C3)C1)C2	-239	-6	.	-1	-0.2	.	.	.	-1	.
CCc1cccc2c(C(=O)CN3C(=O)NC4(CCCCC4)C3=O)c[nH]c12	-10	.	i	.	.	6	-27	7.8	-17	-3.2
CCN1C(=O)N(S(=O)(=O)c2ccc(C)cc2)[C@@H](c2ccccc2)C(C(=O)OC)=C1C	0	22	i	4	0.0	2	-1	-3.8	8	1.1
COC(=O)c1ccc(CSc2nc3ccccc3c(=O)n2N)cc1	-15	2	i	-2	1.4	0	6	-1.0	-3	0.1
O=C(CCCN1C(=O)c2ccccc2C1=O)Nc1c(C(=O)C2CC2)oc2ccccc12	.	-2	i	-1	1.3	4	10	1.1	3	-3.9
CCN(C(=O)COC(=O)c1cc(=O)c2ccccc2o1)c1c(N)n(Cc2ccccc2)c(=O)[nH]c1=O	-1	-1	i	2	1.5	0	-1	-2.7	0	-1.1
COc1ccc(C(c2nnnn2Cc2cccs2)N2CCN(c3ccc(F)cc3)CC2)cc1OC (stereo not drawn)	2	-8	.	-6	0.0	.	.	.	-2	.
CC(=O)Nc1ccc(N=Cc2c(O)ccc3ccccc23)cc1	.	-4	i	22	-4.7	11	19	1.7	-8	-8.4
CC1=NN(C(C#N)c2ccccc2)C(c2ccccc2)C1 (stereo not drawn)	-1	-2	i	1	2.4	-1	4	5.8	5	-3.5
NC(=O)c1sc2cc(C(F)(F)F)cnc2c1-c1cccs1	-9	5	.	31	2.3	.	.	.	-1	.
CC1CCCCC12NC(=O)N(CC(=O)NCCc1ccccn1)C2=O (stereo not drawn)	-15	-24	.	-8	1.9	.	.	.	-1	.
CCOc1ccccc1C(=O)NCC(=O)NNC(=O)c1cccc(S(=O)(=O)Nc2ccc(OC)cc2)c1	-2	1	.	9	-0.6	-8	-16	4.3	4	-3.1
COc1ccc(S(=O)(=O)N2CCCCCC2)cc1C(=O)N(C)CCOc1ccc(Cl)cc1	-1	17	i	3	-1.7	-32	-40	-6.5	12	-0.1
CC(/C=C/c1ccccc1)=N/NC(=O)Cn1nnc(N)n1	.	7	i	-5	-0.9	15	-4	1.5	0	0.4
O=C1Nc2ccc(S(=O)(=O)N(CCO)CCO)c3cccc1c23	-15	-11	i	4	4.8	11	10	2.2	.	0.5
NC1=NS(=O)(=O)NC1c1cccc(Cl)c1 (stereo not drawn)	-3	-10	.	-11	0.0	8	5	-1.3	0	.
CCC(C(=O)NC(C)(C)C)N(C(=O)c1ccc(Cl)nc1)C1CCCC1 (stereo not drawn)	-22	-6	i	22	2.2	-5	-7	-9.0	-2	-10.0
Cc1ccc2c(c1)nnn2C1CCN(C(=O)C2CCCCC2)CC1	-8	5	.	11	1.0	.	.	.	5	.
CCC(=O)Nc1ccc(C(=O)CSc2nnc(-c3ccccc3F)n2CCc2ccccc2)cc1	4	12	i	-34	1.8	-28	-38	6.1	-6	-0.7
Cc1cn2c(=O)c(C(=O)N3CCN(c4ccccc4F)CC3)cnc2s1	-1	8	.	-7	-0.7	6	4	-1.1	.	-0.4
CCS(=O)(=O)c1ccccc1C(=O)NC1CCCc2ccccc21 (stereo not drawn)	2	-8	i	1	5.2	3	1	-3.9	0	-1.9
O=c1c2ccccc2nnn1CSc1nnnn1-c1ccc(O)cc1	-26	-10	i	2	?	3	-2	-2.0	0	-3.6
O=C(Nc1ccc(F)cc1F)NC1CCN(S(=O)(=O)c2ccc(F)cc2)CC1	.	-15	.	2	-1.4	4	-2	3.4	-4	-1.5
Cc1cccc(-n2c(C)cc(/C=C3\C(=N)N4N=C(CC(C)C)SC4=NC3=O)c2C)c1	.	0	i	-7	26*	.	.	.	3	-3.0
COc1ccc(Cc2nc(-c3ccncc3)no2)cc1	1	1	i	-7	-0.2	-15	-5	8.9	3	-1.2
CCOC(=O)NC(=O)/C(N=Nc1ccc(C(F)(F)F)cc1)=C(\C)O	2	-1	i	-19	4.7	10	-3	-4.9	4	-1.2
O=C(O)CC(NC(=O)C12CC3CC(CC(C3)C1)C2)c1ccc(Cl)cc1 (stereo not drawn)	-1	-3	i	-7	0.1	3	3	-2.7	-10	-0.6

(more compounds)
smiles	ALR H2O2 inh	T cruzi repl	FGF22 binding	Calb FLC	RanGTP-Imp inh	Ecoli rRNA inh	Ecoli rRNA inh OD600	Ecoli rRNA inh RFP	Beta cell apopt	MLL AF4-AF9 inh
COc1cc(CNC2CCCCC2)c(Br)cc1OC1CCCC1	-4	27	i	5	3.8	-5	-26	11	12	.
C[C@@H]1COC(=O)[C@H](CC(=O)OC(C)(C)C)C/C=C\C[C@@H](CC(=O)N[C@H](CO)Cc2ccccc2)C(=O)N1	-3	.	i	.	.	8	5	5.8	2	0.3
CCOc1cc(C(=O)NN2CCOCC2)cc(OCC)c1OCC	.	-10	i	4	2.7	11	9	1.5	-2	-6.0
CC(CCc1ccccc1)NC(=O)COC(=O)c1ccccc1Br (stereo not drawn)	-9	12	i	-5	0.0	-31	-44	-19	2	-1.6
O=C(N/N=C/c1ccc(Br)cc1)c1ccc(Br)o1	1	-18	.	37	0.5	.	.	.	-4	.
O=C(NC(=S)Nc1ccc2c(c1)C(=O)c1ccccc1C2=O)c1ccc(F)cc1	-6	-14	.	-3	-1.3	.	.	.	10	.
Cc1cc(C)c(S(=O)(=O)Nc2cccc(C(=O)O)c2)cc1S(=O)(=O)Nc1cccc(C(=O)O)c1	-6	-23	i	-9	2.0	16	-3	2.4	3	-6.6
c1ccc2c(c1)OCC(c1nnc3sc(-c4cnccn4)nn13)O2 (stereo not drawn)	-24	-4	.	1	-1.2	.	.	.	-4	.
CN(C[C@H](CC1CCCCC1)N(C[C@H](Cc1ccccc1)N(CCc1ccccc1)N=O)N=O)N=O	-6	25	i	-18	-4.8	10	8	2.3	5	-2.2
